# Compound activity from PubChem BioAssay.
# liver stage – Plasmodium liver-stage growth inhibition, dose response, imaging, Malaria Box, P. yoelii, HepG2-A16-CD81EGFP (AID 602156); 5,700 compounds, 4.8% hits; P. yoelii liver stage in HepG2-A16-CD81EGFP, imaging; first-round cut-off not given here; calls after a first round at 10 µM; hits with a dose series show IC50 in µM; in the data active = a potency from the dose series;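 note: infected cells exposed to compound for 48 hours before fixation; stained parasite area by imaging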
# * marks the source's active call; other numbers are inactive results; i = inactive. Only part of the results is shown. The share of hits here may be higher or lower than overall.
nr	mol	liver stage
1	CCOC(=O)C1=C(O)C(=Cc2cc(C)n(-c3ccc(C)cc3C)c2C)N=C1C	i
2	CC(C)N1CCC(N2CCN(Cc3ccc4c(c3)Cc3ccccc3-4)CC2CCO)CC1 (centres undefined)	i
3	Cc1ccc(NC(=O)c2nc[nH]c2C(=O)Nc2nc3ccccc3[nH]2)c(C)c1	i
4	CC1CCN(CCCNc2ccc(C(=O)Nc3ccc(C(F)(F)F)cc3)cc2[N+](=O)[O-])CC1	i
5	O=[N+]([O-])c1ccc(Nc2nc(NN=Cc3ccccc3I)nc(Nc3ccccc3)n2)cc1	i
6	COc1cc(/C=C(\C#N)c2nc3ccccc3[nH]2)ccc1OCc1ccc(Cl)cc1	i
7	COc1ccc(C(C)=NNc2nnc(C)c(=O)[nH]2)cc1	i
8	Cc1ccccc1OCCSc1nc2ccc(NC(=O)c3cccs3)cc2s1	i
9	CCCCCC[n+]1ccccc1/C=C/c1ccc(N(C)C)cc1	0.056µM*
10	Cc1cc(C)n(-c2ncc(-c3ccc([N+](=O)[O-])cc3)cn2)n1	i
11	CCN1C(=Cc2cc[n+](C)cc2)C=Cc2cc(C)ccc21	0.17µM*
12	CCN1CCN(CCN2C(=O)C3C(C(=O)Nc4ccc(C(C)C)cc4)C4C=CC3(O4)C2C(=O)NC2CCCCC2)CC1 (centres undefined)	i
13	C=CCN1C(=Cc2cc[n+](C)cc2)Sc2ccccc21	0.013µM*
14	CC[n+]1ccc(C=Cc2ccc(N(C)C)cc2)cc1	i
15	c1cncc(-c2ncc(-c3cnccn3)c(-c3cccnc3)n2)c1	i

# A different layout for 2 compounds above:
(4) CC1CCN(CCCNc2ccc(C(=O)Nc3ccc(C(F)(F)F)cc3)cc2[N+](=O)[O-])CC1
  liver stage: i
(10) Cc1cc(C)n(-c2ncc(-c3ccc([N+](=O)[O-])cc3)cn2)n1
  liver stage: i

# The listing picks up, repeating the four entries before the break.
nr	mol	liver stage
12	CCN1CCN(CCN2C(=O)C3C(C(=O)Nc4ccc(C(C)C)cc4)C4C=CC3(O4)C2C(=O)NC2CCCCC2)CC1 (centres undefined)	i
13	C=CCN1C(=Cc2cc[n+](C)cc2)Sc2ccccc21	0.013µM*
14	CC[n+]1ccc(C=Cc2ccc(N(C)C)cc2)cc1	i
15	c1cncc(-c2ncc(-c3cnccn3)c(-c3cccnc3)n2)c1	i
16	Cc1c(Cl)cccc1N1C(=O)C2C3c4ccccc4C(c4ccccc43)C2C1=O (centres undefined)	i
17	Cc1ccc(N=C2NC(=O)/C(=C\c3ccc(N(C)C)cc3)S2)cc1	i
18	CCN(CC)c1ccc(N=Cc2ccccc2[N+](=O)[O-])cc1	i
19	CCc1ccc(C(=O)N(C)CCCNc2ccnc3cc(Cl)ccc23)cc1	i
20	COc1ccc(CN(C)C(C)C)cc1OC1CCN(C(=O)C2CCC2)CC1	i
21	COc1ccc(C2CC(=O)C3=C(C2)NC(C)=C(C(=O)OC2CCCC2)C3c2cccc(Cl)c2)cc1OC (centres undefined)	i
22	COC(=O)C1C(=O)C2=C(CC1C)NC(=O)CC2c1ccc(Cl)cc1Cl (centres undefined)	i
23	COc1ccc(C2=C(c3ccc(OC)cc3)C3(c4ccccc4)C(=O)C2(c2ccccc2)C2C(=O)N(c4ccc(C)c(Br)c4)C(=O)C23)cc1 (centres undefined)	i
24	CCN1CCN(c2cc(C)c3cc(NC(=O)C=Cc4cccc(Cl)c4)ccc3n2)CC1	i
25	CC1(C)N=C(N)N=C(N)N1c1ccc(Oc2ccc(Cl)cc2)c(Cl)c1	0.073µM*
26	COc1ccc(C2C(C(=O)Nc3cccc(OC)c3)c3ccccc3C(=O)N2C2CCCCC2)cc1 (centres undefined)	i
27	CCCN1CCC(N2C[C@@H](NC3CCN(CCc4ccccc4)CC3)C[C@H]2C(=O)NCCc2ccc3c(c2)OCO3)CC1	i
28	Cc1ccc(-c2cc(-c3ccccc3)c(C#N)c(SCC(O)CS(=O)Cc3ccccc3)n2)cc1 (centres undefined)	i
29	COc1cc(NC(C)CCCN(Cc2ccc(Cl)cc2)C(=O)C(C)C)c2ncccc2c1 (centres undefined)	i
30	O=C1N(Cc2cc3ccccc3s2)CC2CN(Cc3ccoc3)CCN12 (centres undefined)	i

# Next section; the last 6 above are carried over.
nr	mol	liver stage
25	CC1(C)N=C(N)N=C(N)N1c1ccc(Oc2ccc(Cl)cc2)c(Cl)c1	0.073µM*
26	COc1ccc(C2C(C(=O)Nc3cccc(OC)c3)c3ccccc3C(=O)N2C2CCCCC2)cc1 (centres undefined)	i
27	CCCN1CCC(N2C[C@@H](NC3CCN(CCc4ccccc4)CC3)C[C@H]2C(=O)NCCc2ccc3c(c2)OCO3)CC1	i
28	Cc1ccc(-c2cc(-c3ccccc3)c(C#N)c(SCC(O)CS(=O)Cc3ccccc3)n2)cc1 (centres undefined)	i
29	COc1cc(NC(C)CCCN(Cc2ccc(Cl)cc2)C(=O)C(C)C)c2ncccc2c1 (centres undefined)	i
30	O=C1N(Cc2cc3ccccc3s2)CC2CN(Cc3ccoc3)CCN12 (centres undefined)	i
31	O=C(Nc1ccc(-n2cccn2)cc1)C1CCN(C/C=C/c2ccccc2)CC1	i
32	CCC(c1nc2ccccc2c(=O)n1-c1ccc(F)cc1)N(CCc1ccccc1)C(=O)CCc1ccccc1 (centres undefined)	i
33	CC[n+]1c(C=CC=C2N(C)c3ccc(C)cc3C2(C)C)ccc2ccccc21	i
34	COc1ccc(Nc2nc(NN=Cc3cc(Br)c(O)cc3O)nc(Nc3ccc([N+](=O)[O-])cc3)n2)cc1	i
35	COc1ccc(C2=C(Nc3ccc4oc5ccccc5c4c3)c3ccccc3C2=O)cc1	i
36	Nc1nonc1-n1nnc(-c2ccccc2)c1C(=O)NN=Cc1ccc(F)c(Br)c1	i
37	COC(=O)C1=C(O)C(=Cc2cc(C)n(-c3ccc(Cl)c(Cl)c3)c2C)N=C1C	i
38	COc1ccc(OC)c(-c2csc(N(CCCN(C)C)C(=O)Cc3ccccc3)n2)c1	i
39	CCCCNC(=O)C(CC(C)C)N1C(=O)c2cc(NC(C)=O)ccc2NC(=O)[C@@H]1C (some centres undefined)	i
40	COc1cncc(-c2cncc(-c3ccc(Oc4ccccc4)cc3)n2)c1	i
41	CN(C)c1ccc(/C=C/c2nc(=O)c3ccccc3o2)cc1	i
42	CC1CCCCN1CCCNc1ncc(C(=O)NCC2CCCO2)c(NCCc2ccccc2)n1 (centres undefined)	i
43	CN(CCCNc1ccnc2cc(Cl)ccc12)C(=O)C1C[C@H]1c1ccccc1 (some centres undefined)	i
44	COc1ccc(C)cc1-n1c(-c2ccc(Cl)cc2)cc2c1CC(C)(C)CC2=O	i
45	COc1ccc(OC)c(-c2ccc(C(=O)N3CCN(CC=Cc4ccccc4)CC3)c(N(C)C)n2)c1	i
46	c1cncc(CCNc2nccn3c(-c4ccc5ccccc5c4)cnc23)c1	i
47	COc1ccc(CNc2cc(-c3ccc(F)c(F)c3)nc3ccnn23)cc1	i
48	O=C1C(=Cc2ccccc2)SC(=Nc2ccccc2)N1C1CCCCC1	i
49	COCCSc1nc2sc3c(c2c(=O)n1-c1ccc(OC)cc1)CCN(C)C3	i
50	CN(C)c1cccc(Nc2cc(-c3ccc(CC(N)C(=O)O)cc3)nc3ccnn23)c1 (centres undefined)	i
51	Cc1cnc(NC(=O)Nc2ccc(-c3ccc(NC(=O)Nc4ncc(C)s4)c(C)c3)cc2C)s1	i
52	CC[n+]1c(/C=C2\Sc3ccc(C)cc3N2CCO)ccc2ccccc21	i
53	CCOc1ccccc1-n1c(C(C)N(Cc2ccccc2)C(=O)Nc2cccc3ccccc23)nc2ccccc2c1=O (centres undefined)	i
54	CCOC(=O)c1c[nH]c2ccc3c(c(C)c(C)n3C)c2c1=O	i
55	CCCCC(CC)C(=O)N(C)CCCNc1ccnc2cc(Cl)ccc12 (centres undefined)	i
56	CC(=O)N(Cc1ccc2c(c1)OCO2)C1CC(=O)N(c2ccccc2)C1=O (centres undefined)	i
57	Fc1ccc(-c2cn(-c3ccccc3)c3[n+]2CCS3)cc1	i
58	COc1cc(-c2nc(-c3cccc(Cl)c3)c(-c3ccccc3)[nH]2)cc(OC)c1O	i
59	CCCCN(CCCC)S(=O)(=O)c1ccc(NC(=O)c2ccco2)cc1	0.38µM*
60	CCOC(=O)c1cc(-c2ccccc2)n(CCC(=O)Nc2ccccc2N2CCN(C)CC2)c1C	i
61	CC(=O)Oc1ccccc1-c1nc2cc(C)ccn2c1NC(C)(C)CC(C)(C)C	i
62	COc1ccccc1NC(=O)CSc1nc2cccnc2n1-c1ccccc1OC	i
63	O=C(CCc1ccccc1)c1ccccc1OCC(O)CN1CCCCC1 (centres undefined)	i
64	O=C1C(NC2CCCCC2)=C(N2CCOCC2)C(=O)c2ccccc21	i
65	CCN(CC)CCCC(C)Nc1cc(/C=C/c2ccc([N+](=O)[O-])cc2)nc2cc(OC)ccc12 (centres undefined)	i
66	COc1cc(-c2nc(-c3ccccc3)c(-c3ccc(Sc4ccccc4)cc3)[nH]2)cc(OC)c1O	i
67	CC1CC(=Cc2ccncc2)C(=O)C(=Cc2ccncc2)C1 (centres undefined)	i
68	CN(C)c1cc[n+](Cc2c(Cl)cccc2Cl)cc1	i
69	COc1ccc(CC(=O)NCCCCNc2ccnc3cc(Cl)ccc23)cc1	i
70	O=C(NCc1ccccc1)c1cnc(NCCCn2ccnc2)nc1NCCc1ccccc1	i
71	Cn1c(SCc2cccc([N+](=O)[O-])c2)nc2c(c1=O)SCC2	i
72	N#Cc1cccc(/C=C/C(=O)O)c1	i
73	O=C(Nc1ccc(NC2=NCCN2)cc1)c1ccc(C(=O)Nc2ccc(NC3=NCCN3)cc2)cc1	i
74	CC(C)(C)NS(=O)(=O)c1cc(Cl)ccc1Cl	i
75	NCCNC(=O)COC(c1cccnc1)c1ccccc1Cl (centres undefined)	i
76	COc1ccc(CCNc2nc(NCCCN3CCCC3)ncc2C(=O)NCC(C)C)cc1OC	i
77	CC(=O)OCC(=O)[C@@]1(O)CCC2C3CCC4=CC(=O)CC[C@]4(C)C3[C@@H](O)C[C@@]21C (some centres undefined)	i
78	CN(C)c1ccc(/C=C2\SC(=N)N(c3nccs3)C2=O)cc1	i
79	OCCNCCNCc1ccc2[nH]c3ccccc3c2c1	i
80	O=C(c1ccncc1)N1N=C(c2c(-c3ccccc3)c3cc(Br)ccc3[nH]c2=O)CC1c1ccccc1 (centres undefined)	i
81	CCCCCNC(=O)C1CSC(c2ccoc2)N1C(=O)c1ccccc1Cl (centres undefined)	i
82	COc1ccc(C=CC(=O)NC(=O)c2ccccc2O)cc1	i
83	OCCNc1nc(Nc2ccc(Cl)c(Cl)c2)nc2ccccc12	i
84	CC(=O)N(C1=C(N2CCCCC2)C(=O)c2ccccc2C1=O)c1cccc(F)c1	i
85	COc1cc(C(=O)NCCc2cc3ccccc3[nH]2)ccc1OC1CCN(CC(c2ccccc2)c2ccccc2)CC1	i
86	CCCCS(=O)(=O)N(C)CCCNc1ccnc2cc(Cl)ccc12	i
87	Cc1ccccc1C(=O)N(CC(=O)Nc1cc(C(C)(C)C)nn1-c1ccccc1Cl)C(C)C	i
88	COc1ccc(C2CC(=O)C3=C(C2)NC(C)=C(C(=O)OC2CCCC2)C3c2ccc(Cl)cc2)cc1OC (centres undefined)	i
89	CCCC(=O)N1CCN(C(=O)c2nc(-c3ccccc3)nc(C(C)C)c2C(=O)OC)CC1C (centres undefined)	i
90	OC(Cn1cnc(-c2ccccc2)c1-c1ccccc1)Cn1c2ccc(Br)cc2c2cc(Br)ccc21 (centres undefined)	i

# Additional results
nr	mol	liver stage
91	COc1ccc(C2C3=C(CC(C)(C)CC3=O)Nc3n[nH]c(C)c32)cc1 (centres undefined)	i
92	COc1ccc(CCN(C(=S)Nc2ccccc2)C2CC(=O)N(c3ccc(F)cc3)C2=O)cc1OC (centres undefined)	i
93	Cc1ccc(NC(=O)c2cc(C(=O)c3cc(Cl)ccc3O)cn(-c3ccc(C)c(C)c3)c2=O)cc1C	i
94	O=C(NN=C/C(Br)=C/c1ccccc1)c1ccc(F)cc1	i
95	CC[C@]1(C2OC(C3O[C@](O)(CO)[C@@H](C)C[C@H]3C)C[C@H]2C)CCC([C@@]2(C)CC[C@@]3(C[C@@H](O)[C@H](C)C([C@H](C)[C@H](OC)C(C)C(=O)O)O3)O2)O1 (some centres undefined)	i
96	C[n+]1ccccc1C=Cc1cc(Br)ccc1O	i
97	N#Cc1c(NC(=O)CCl)c(C(=O)c2ccccc2)n2c1CCC2	i
98	Cc1cc2c(Nc3cccc(Cl)c3C)ncnc2s1	i
99	CN(C)c1ccc(C=C2SC(=N)N(c3nccs3)C2=O)cc1	i
100	N=c1c2ccccc2nnn1-c1cccc(C(F)(F)F)c1	i
101	O=C(COc1ccc(-c2ncccn2)cc1CN1CCCCCC1)NCc1ccccc1C(F)(F)F	i
102	O=C(NCCCN1CCOCC1)c1c[nH]c2ccc(S(=O)(=O)N3CCc4ccccc43)cc2c1=O	i
103	CCN1CCN(C(=O)CS(=O)(=O)Cc2nc(-c3cccc(OC)c3)oc2C)CC1	i
104	Cc1ccc(NC(=O)c2ccc(NCCCN3CCCCCC3)c([N+](=O)[O-])c2)cc1F	i
105	O=C(O)CCNc1ccccc1[N+](=O)[O-]	i
106	CCOC(=O)c1cnc2ccc(C)cc2c1NCCCN1CCOCC1	i
107	CCC(CO)NCC(O)Cn1c2ccc(Cl)cc2c2cc(Cl)ccc21 (centres undefined)	i
108	Oc1ccc(-c2ccnc3cc(Cl)ccc23)cc1CNCC1(O)CCCCC1	i
109	CCN1C(=O)N(CC)C(NNC(N)=S)C1NNC(N)=S (centres undefined)	0.069µM*
110	C[n+]1ccc(C2OC2c2ccccc2)c2ccccc21 (centres undefined)	i
111	COc1ccc(/C=C/C(=O)Nc2ccc(S(=O)(=O)N3CCOCC3)cc2)cc1	i
112	CCCN1CCC(N2C[C@@H](NCCC3=C(C)CCCC3(C)C)C[C@H]2C(=O)NCC)CC1	i
113	CCOc1ccc(Nc2nc(N3CCCCC3)nc(N3CCCCC3)n2)cc1	i
114	COc1ccc2nc(NC(=O)c3ccc(C#N)cc3)sc2c1	i
115	CN(C)CCCNc1ccnc2cc(Cl)ccc12	i
116	Cc1nc(NCCCN(C)C)c2sc3nc4c(cc3c2n1)COC(C)(C)C4	i
